BJeLR viability – kills HRASV12-expressing BJeLR cells; 300,000 compounds, 0.17% hits; AID 1554; BJeLR (HRASV12) viability, CellTiter-Glo ATP luminescence, 48 h; reference of the scale not given here; inhibition, % (no concentration beside the values);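 active = replicate mean above 50%; inconclusive = above 50% but judged a plate artefact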;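 also: 50 nL library stock added to about 25 µL; numbers are from one replicate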
Mtb hypoxia inh – Mtb hypoxia fluorescent reporter inhibition; fluorescence inhibition, % (no concentration beside the values); AID 1159583; M. tuberculosis hypoxia-regulated fluorescent reporter, fluorescence; 300,000 compounds, 0.1% hits;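 active = 35 to 45% if threefold the growth effect, above 45% if 1.5-fold the growth effect; inactive = the rest, general growth blockers included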;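 also: wells of about 50 µL received 100 nL stock; 0% = vehicle wells and 100% = reference inhibitor wells; whole bacteria with a GFP reporter of the hypoxia response; strong numbers were not always called active; many hits fall short of the cut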
PrP 5UTR inh – suppresses PrP 5' UTR mRNA reporter expression; cell-based PrP 5' UTR mRNA reporter, plate reader; inhibition, % (concentration not given with the values); 340,000 compounds, 0.35% hits;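 active = every replicate at 50% or more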;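 also: 0 = median of the neutral control wells; tested in H4 reporter cells; numbers are from one replicate; inactives centre near -14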
Autofluor counter – flagged as autofluorescent in microsphere protease counterscreen | fluorescence intensity (test concentration not listed) | 360,000 compounds, 3.1% hits | compound autofluorescence counterscreen, microsphere flow cytometry; stronger effect = higher value | AID 624483;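 active = at least 3 SD above the mean of all compounds, about 16000 in these data; inconclusive = too few beads counted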;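 also: 100 nL of 1 mM stock went into each well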
ugtP null kill – compounds lethal to S. aureus RN4220 ugtP deletion mutant | OD600 growth, 16 h; some inactives read as strong as hits | growth inhibition, % (concentration not given with the values) | 330,000 compounds, 0.54% hits | AID 1259309;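 active = z-score under -3 and OD600 up to 0.15 on both plates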;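 also: plate controls were untreated wells for no effect and antibiotic for full effect; wells of about 80 µL received 100 nL stock; the first replicate is given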
RN4220 kill – kills Staphylococcus aureus RN4220 | S. aureus RN4220 growth, OD600, 16 h | inhibition, % (no concentration beside the values) | 330,000 compounds, 0.33% hits | AID 1259311;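 active = z-score of -3 or lower and OD600 up to 0.18 on both plates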;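 also: plate controls were untreated cells for no effect and reference antibiotic for full effect; stock transfer was 100 nL into about 80 µL; one replicate is shown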
Mtb hypoxia inh growth – also measured in Mtb hypoxia inh; calls as there; growth inhibition, %; measured here: M. tuberculosis growth (absorbance);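 0% = vehicle and 100% = reference antibiotic; read after six days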
Active calls of the source: *; ? = inconclusive; . = no result given; & = joins results of further samples.

Preview, three compounds:
Order of values: BJeLR viability | Mtb hypoxia inh | Mtb hypoxia inh growth | PrP 5UTR inh | Autofluor counter | ugtP null kill | RN4220 kill
#1 O=C(Nc1ccc(NC(=O)c2ccc(Cl)cc2Cl)cc1)c1ccc2c(c1)OCO2
  -10 | 5 | 15 | -15 | 3670 | 1 | 5.3
#2 N#C/C(=C\c1cn(CC(=O)N2CCCCC2)c2ccccc12)C(=O)NCc1ccc2c(c1)OCO2
  -5 | -7 | -5 | -9 | 7180 | -10 | 2.0
#3 Cc1ccc(F)c(C2=CC(=O)CC(c3ccc(F)cc3)C2)c1 (stereo unspecified)
  . | 19 | 10 | . | . | 0 | -1.4

All compounds of this part, from the first entry:
Order of values: BJeLR viability | Mtb hypoxia inh | Mtb hypoxia inh growth | PrP 5UTR inh | Autofluor counter | ugtP null kill | RN4220 kill
#1 O=C(Nc1ccc(NC(=O)c2ccc(Cl)cc2Cl)cc1)c1ccc2c(c1)OCO2
  -10 | 5 | 15 | -15 | 3670 | 1 | 5.3
#2 N#C/C(=C\c1cn(CC(=O)N2CCCCC2)c2ccccc12)C(=O)NCc1ccc2c(c1)OCO2
  -5 | -7 | -5 | -9 | 7180 | -10 | 2.0
#3 Cc1ccc(F)c(C2=CC(=O)CC(c3ccc(F)cc3)C2)c1 (stereo unspecified)
  . | 19 | 10 | . | . | 0 | -1.4
#4 Cc1cc(/C=C(/C#N)C(=O)O)c(C)n1-c1cccc2ccccc12
  -8 | 4 | 15 | 13 | 3860 | -4 | 15
#5 Oc1ccc(N=Cc2ccc(OCc3ccccc3)cc2)cc1
  -2 | 7 | 12 | -9 | 4265 | 12 | 4.8
#6 CCOC(=O)c1ccc(-c2ccc(C=NNC(=O)CN(c3cccc(C)c3)S(C)(=O)=O)o2)cc1
  . | 4 | 3 | . | . | 2 | 2.8
#7 COC(=O)CCCNC(=O)c1ccc2[nH]c(C)c(C)c2c1
  -2 | 0 | 14 | -15 | 3846 | 2 | 4.2
#8 O=C(NCCc1c[nH]c2ccccc12)C1Cc2ccccc2CN1C(=O)c1ccco1 (stereo unspecified)
  3 | 3 | 11 | -17 | 4302 | -1 | 3.8
#9 CCC(C)(C)NC(=O)CN(C(=O)CNS(=O)(=O)c1ccc(C)cc1)c1ccc2c(c1)OCCO2
  -12 | . | . | -18 | 5833 | 2 | 2.4
#10 C=CCn1c(O)c(CN2CCN(Cc3ccccc3)CC2)c(C)c(C#N)c1=O
  0 | 3 | 2 | -27 | ? | -6 | -10
#11 COCCNC(=O)CCCn1c(=O)c2cc(OC)c(OC)cc2n(CC(=O)NCCC2=CCCCC2)c1=O
  2 | 8 | 2 | -15 | 2082 | -3 | 1.3
#12 CCC1CCC(C(=O)NNC(=O)OC)CC1 (stereo unspecified)
  -2 | 1 | 0 | 1 | 2461 | -8 | -1.6
#13 CCc1ccc(-c2cc3c(=O)n(CC(=O)NCCCN4CCC(Cc5ccccc5)CC4)nc(C)n3n2)cc1
  -1 | -9 | 2 | -17 | 6440 | -18 | -7.9
#14 Cn1c(N2CCN(S(=O)(=O)c3ccc(Cl)cc3)CC2)nc2ccccc21
  14 | 12 | -1 | -26 | 3887 | 7 | 6.5
#15 O=C(C[C@@H]1C/C=C\C[C@H](NC(=O)OCC2c3ccccc3-c3ccccc32)C(=O)OC[C@H]2CCCN2C1=O)N[C@@H](CO)Cc1ccccc1
  . | -2 | 14 | -20 | 3775 | -11 | 1.9
#16 O=C(NC(=O)c1ccccc1)Nc1ccc(-c2cnco2)cc1
  6 | -7 | -7 | . | 4299 | -32 | -0.6
#17 O=C(NCCC(c1ccccc1)c1ccccc1)c1cnccn1
  1 | 4 | 0 | -2 | 2075 | 19 | 0.5
#18 COC(=O)C1(C)CCc2cc(OC)ccc2C1=O (stereo unspecified)
  2 | 13 | 7 | -24 | 2375 | 5 | 0.9
#19 Cc1cc(=O)[nH]c(SCC(=O)Nc2nc(-c3ccccc3)c(-c3ccccc3)o2)n1
  1 | 0 | 8 | 5 | 2163 | -9 | -4.9
#20 O=C1OCC(c2ccccc2)=C1c1ccccc1
  -11 | 11 | -2 | -14 | 3958 | 8 | 5.3
#21 Cc1oc(-c2ccc(Cl)cc2)nc1CS(=O)CC(=O)NCc1cccs1 (stereo unspecified)
  -8 | -1 | 1 | -36 | 5448 | 15 | 26
#22 CSCCOC(=O)COc1ccc(C=NNC(=O)c2nn(C)cc2Cl)cc1
  . | 10 | 4 | . | . | 11 | 2.8
#23 O=c1cc(Cn2ccnc2)c2cc(O)ccc2o1
  6 | -2 | 2 | -6 | 3622 | 1 | 0.3
#24 COCCNC(=O)Cn1nc(-c2ccc(C)cc2)ccc1=O
  2 | -4 | -16 | -17 | 3877 | -1 | -3.9
#25 CCCCn1nnc(NC(=O)c2ccc([N+](=O)[O-])cc2Cl)n1
  0 | 5 | 24 | -33 | 4027 | -6 | 1.4
#26 O=C(CSc1ccc([N+](=O)[O-])cn1)Nc1ccc2c(c1)OCCO2
  1 | 6 | 2 | -25 | 3576 | -4 | 4.6
#27 O=C(OCc1ccccc1)/C(=C/c1ccc(Cl)cc1)NC(=O)c1ccccc1Cl
  3 | . | . | -7 | 2087 | -3 | 1.6
#28 COC(=O)c1ccc(S(=O)(=O)NCc2ccc(S(N)(=O)=O)cc2)o1
  5 | 11 | 5 | -13 | 6232 | 10 | 2.7
#29 CCc1sc(NC(C)=O)nc1-c1ccccc1
  -7 | 12 | 5 | -15 | 2022 | -5 | 3.8
#30 Cc1c(Cl)cccc1NC(=O)Nc1ccc(C(=O)N2CCCC2)cc1
  13 | -7 | 11 | -25 | 2015 | -7 | 2.0
#31 O=[N+]([O-])c1sccc1CS(=O)(=O)c1ccccc1
  -5 | -4 | 1 | -3 | . | 3 | 16
#32 CC(=O)Nc1ccc(Oc2sc(C(=O)c3ccccc3)c(N)c2C#N)cc1
  4 | . | . | -9 | 2398 | -36 | -1.9
#33 COc1ccccc1N(C)S(=O)(=O)c1ccc(C(=O)N(C)Cc2ccc(OC(F)F)cc2)cc1
  . | 6 | 4 | -14 | 3737 | 9 | 2.6
#34 Cc1c(C(C)NC(=O)Nc2ccc(F)cc2F)cnn1C (stereo unspecified)
  -6 | 3 | -5 | -20 | ? | 6 | 0.9
#35 CCC(C(=O)NCc1ccc(F)cc1)N(CCc1ccccc1)C(=O)c1snc(C(N)=O)c1N (stereo unspecified)
  1 | 8 | -3 | -13 | 3136 | 6 | 7.0
#36 CCN(CC)S(=O)(=O)c1cc(NC(=O)CCc2c(C)noc2C)ccc1C
  . | -7 | -8 | -10 | 3776 | 3 | 4.8
#37 Cc1ccc(C(=O)N2CCN(c3ccccc3F)CC2)cc1S(=O)(=O)N1CCOCC1
  7 | 6 | 2 | -18 | 2051 | 10 | 4.2
#38 CC(NC(=O)C(c1ccccc1)c1ccccc1)C(=O)O (stereo unspecified)
  -1 | 7 | 10 | -11 | 11200 | 3 | 4.3
#39 O=C(NC1CCCC1)c1ccc2nc[nH]c2c1
  -3 | . | . | -3 | 4641 | -1 | 1.2
#40 O=C(NC1CC1)C1=CC(c2c[nH]c3ccccc23)CC(OCCCCO)O1 (stereo unspecified)
  . | 3&-4 | 1&4 | . | . | -3&4 | 1.4&2.9
#41 COc1cccc(C(=O)N[C@@H](C)C(=O)N2CCC3(CC2)NCCc2[nH]cnc23)c1
  -1 | 6 | 3 | -14 | 4206 | 6 | 0.8
#42 Cc1cc(NC(=O)COC(=O)c2cc([N+](=O)[O-])ccc2N2CCOCC2)ccc1Br
  -4 | -6 | 5 | -10 | . | -11 | -5.5
#43 CN(C(=O)C1CCN(S(=O)(=O)c2ccccc2)CC1)c1c(N)n(Cc2ccccc2)c(=O)[nH]c1=O
  2 | 1 | 2 | -8 | ? | 1 | 0.9
#44 CCOc1cc(S(=O)(=O)Nc2ncn[nH]2)ccc1Br
  5 | 4 | 6 | -10 | 5789 | 5 | -0.5
#45 CC1Cc2ccccc2N1C(=O)CSc1nnc(NC(=O)Cc2cccs2)s1 (stereo unspecified)
  4 | 3 | 8 | . | . | 5 | -3.8

Values by screen from the list.
Entries 19–23 in PrP 5UTR inh: 5, -14, -36, ., -6
Entries 19–23 in Autofluor counter: 2163, 3958, 5448, ., 3622

The list goes on.
Order of values: BJeLR viability | Mtb hypoxia inh | Mtb hypoxia inh growth | PrP 5UTR inh | Autofluor counter | ugtP null kill | RN4220 kill
#46 CCOc1ccccc1OCC(=O)Nc1cc(S(=O)(=O)N2CCCCC2)ccc1N1CCN(CC)CC1
  4 | 8 | 6 | -3 | 5627 | 6 | 5.3
#47 Nc1ccc(-c2nnn(CC(=O)N3CCCCC3)n2)cc1
  -11 | 9 | 5 | 8 | 3071 | -3 | 2.5
#48 COc1cc(C(=O)N2CCN(C(=O)c3cc(-c4ccccc4)n[nH]3)CC2)cc(OC)c1OC
  -7 | 10 | 3 | -10 | 5879 | 2 | -0.5
#49 COc1cccc(C(c2nnnn2C(C)(C)C)N2CCN(C3CCCCC3)CC2)c1OC (stereo unspecified)
  0 | . | . | -5 | 2022 | 3 | -1.4
#50 CCC1CCCCN1CCCNC(=O)C(C)n1nc(C)c2sc3ccccc3c2c1=O (stereo unspecified)
  10 | -2 | 16 | -9 | 5772 | 1 | 2.2
#51 CC(=O)Nc1c(C)cc(OCC(=O)O)cc1C
  0 | -9 | -10 | -2 | 4023 | -8 | 1.8
#52 Cc1ccnc(NC(=O)CNC(=O)COc2ccccc2)c1
  -4 | -3 | -2 | -47 | ? | 3 | 4.7
#53 CC(=O)c1ccc(NCCC(=O)c2ccccc2)cc1
  8 | -8 | -1 | -19 | 3169 | 4 | 12
#54 CCn1c2ccccc2c2nnc(SCC(N)=O)nc21
  7 | 13 | 11 | -55 | 10238 | 3 | 1.1
#55 CCCN1CCN(CCCNC(=O)c2ccc(NC(=O)C3=C(C)OCCS3)cc2)CC1
  -4 | 4 | 2 | -6 | 5817 | 3 | 0.7
#56 CCN(CC)Cc1c(O)ccc2occ(C(=O)c3ccc(OC)cc3)c12
  -6 | . | . | 5 | 3823 | 4 | -3.5
#57 N#C/C(=C\c1ccc(N2CCCCC2)o1)C(N)=O
  -3 | 10 | 7 | -21 | 2696 | 3 | 4.2
#58 COCCCn1c(=O)c2sccc2n2c(CCCC(=O)NCc3ccccc3)nnc12
  10 | 19 | 5 | -31 | 5743 | 8 | 6.2
#59 CN1C(=O)CC(NNC(=O)c2ccccc2)C1=O (stereo unspecified)
  4 | . | . | -3 | 3433 | 11 | -1.4
#60 CN1C(=O)N(C)C(=O)C(CCc2ccccn2)(CCc2ccccn2)C1=O
  8 | 20 | 4 | -20 | 3469 | -6 | -7.4
#61 Cc1ccccc1CSCCNC(=O)CCSc1ccccc1
  2 | 13 | -1 | -12 | ? | 1 | 1.1
#62 CC(C)Oc1ccc(N2CC(C(=O)Nc3ccc(N4CCOCC4)cc3)CC2=O)cc1 (stereo unspecified)
  -10 | 3 | 6 | -5 | 2367 | -5 | -0.1
#63 CC(=O)Nc1c([N+](=O)[O-])cc(C)c(Cl)c1[N+](=O)[O-]
  -9 | 6 | 13 | -3 | 2236 | -1 | 3.4
#64 COCCCn1c(C(C)C)nc2oc3cc(OC)ccc3c(=O)c2c1=O
  4 | 1 | -4 | -18 | 20914* | -4 | -0.3
#65 CCCc1cc(=O)oc2cc(C)cc(OCC(=O)N[C@@H](CSCc3ccccc3)C(=O)O)c12
  -4 | . | . | -16 | 5397 | 3 | 5.2
#66 O=C(c1n[nH]c2ccccc12)N1CCN(S(=O)(=O)c2ccc3ccccc3c2)CC1
  -2 | 9 | 10 | -21 | 6003 | -31 | -1.5
#67 COc1ccc(CN2CC(C(=O)NCC3CCCO3)CC2=O)cc1 (stereo unspecified)
  -11 | 5 | 6 | -10 | 16005 | 12 | 5.3
#68 c1ccc(-c2nnc(-c3c[nH]c4ccccc34)nc2-c2ccccc2)cc1
  -7 | . | . | 1 | 2265 | 17 | -5.9
#69 COc1cccc(-c2c(C(=O)NN=C(C)c3cccs3)nnn2-c2nonc2N)c1
  . | 9 | -10 | . | . | 9 | 4.2
#70 COc1ccc(CCNC(=O)CCc2ccc(S(=O)(=O)NCC(C)C)cc2)cc1
  -3 | -6 | -4 | -26 | 2437 | -1 | 3.7
#71 CC(C)[N+]1(C)[C@@H]2CC[C@H]1CC(OC(=O)C(CO)c1ccccc1)C2 (stereo partly specified)
  2 | . | . | -12&-13&-14 | 4929&5898&6221 | . | .
#72 COC(=O)C1(Cc2cc(-c3ccc(OC)cc3OC)no2)CCN(C(=O)OC(C)(C)C)CC1
  -6 | 4 | 8 | -18 | 3623 | 6 | 6.0

From PubChem BioAssay
